HCMV NEC inh: inhibitors of HCMV UL50-UL53 nuclear egress complex interaction | HTRF UL50-UL53 interaction, normalized percent inhibition | inhibition, % (concentration not given with the values) | 0.15% of 190,000 active | AID 1918969;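 active = both replicates at 50% or more, plus weaker picks with an unusually low signal ratio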;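 note: stock transfer was 100 nL into about 20 µL; 0% = negative control wells and 100% = wells with untagged competitor protein; inactives centre near -12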
GIV Gai3 FP: inhibitors of GIV GBA-motif binding to rat Galpha-i3. P08753. Galpha-i3/FITC-GIV peptide fluorescence polarization, 90 min; stronger effect = lower value; scaled: aluminum fluoride 0%, vehicle 100%. percent of control (FP), % (no concentration beside the values). 0.42% of 210,000 active;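 active = replicate mean at 85% of control or lower, very high polarization wells dropped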;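 note: wells of about 15 µL received 100 nL stock; the first replicate is given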
Target sequence (P08753 whole entry, looked up): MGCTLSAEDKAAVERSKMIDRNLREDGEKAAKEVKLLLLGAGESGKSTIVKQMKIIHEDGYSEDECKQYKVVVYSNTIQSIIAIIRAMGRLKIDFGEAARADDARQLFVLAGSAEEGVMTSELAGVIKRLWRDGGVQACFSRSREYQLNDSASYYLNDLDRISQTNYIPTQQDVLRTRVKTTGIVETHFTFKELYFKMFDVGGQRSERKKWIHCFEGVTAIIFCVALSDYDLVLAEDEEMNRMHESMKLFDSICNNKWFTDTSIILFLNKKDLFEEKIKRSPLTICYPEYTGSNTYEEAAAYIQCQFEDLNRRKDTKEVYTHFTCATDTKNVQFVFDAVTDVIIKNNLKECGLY
Sa growth 42C: inhibitors of Staphylococcus aureus growth at 42 °C | S. aureus RN4220 growth, OD600, 20 h; stronger effect = lower value | relative growth, % (test concentration not listed) | 0.53% of 170,000 active | AID 720641;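 active = growth at 42 °C up to 50% and 20 or more points under that at 30 °C, or under 10% at both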;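 note: 300 nL library stock went into each well; scaled to the means of positive and negative controls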
Sa growth 42C second temp: second read-out of Sa growth 42C, no call of its own (marks repeat the call); relative growth, %; measured here: growth at 30 °C;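 optical density after 20 h as mean of two plates; 100% = untreated growth and lower means inhibition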
* hit, by the source's call; . = no result given; & = joins results of further samples. No enrichment for hits. About 0.83% of those tested had a hit in this group.

The first 15 entries as a preview:
smiles | HCMV NEC inh | GIV Gai3 FP | Sa growth 42C | Sa growth 42C second temp
Cc1c2n(c3ccccc13)C/C(=C\c1ccccc1)C2=O | -14 | 109 | 93 | 97
O=S(=O)(NCC(c1cccnc1)S(=O)(=O)c1ccccc1)c1ccccc1 (configuration not stated) | -4 | 103 | . | .
O=C(CN1CCOCC1)Nc1scc(-c2ccccc2)c1C(=O)N1CCOCC1 | -31 | . | 81 | 91
CC(=O)Nc1nc(Cn2nc(C(=O)O)c3ccccc3c2=O)cs1 | -12 | . | 77 | 88
O=C(CN1CCN(S(=O)(=O)c2ccccc2)CC1)Nc1ccc2c(c1)CCC2 | -22 | . | 105 | 97
COc1ccc(-c2noc(C3CCCN(S(=O)(=O)c4ccc(Br)cc4)C3)n2)c(OC)c1 (configuration not stated) | -13 | 99 | . | .
CC1(C)OC(=O)C(=CNc2ccccc2F)C(=O)O1 | -3 | 98 | 98 | 96
CCN(CC)C(=O)CCCn1nc(C)n2c(cc3sccc32)c1=O | -2 | 103 | 97 | 87
O=C(O)c1c2c(nc3ccccc13)CCCC2 | -20 | . | 106 | 84
CCCCN(C)C(=O)C1CCN(Cc2ccc(OCC)cc2)CC1 | -9 | . | 96 | 91
N#Cc1c(-c2ccccc2)cc(-c2ccccc2)nc1SCC(O)CS(=O)(=O)Cc1ccc(Cl)cc1 (configuration not stated) | -50 | 106 | 99 | 85
O=C(ON1C(=O)c2ccccc2C1=O)c1ccc(NC(=O)c2ccco2)cc1 | -24 | 105 | 118 | 96
O=C(NC1CCCC1)C1CCN(c2ccc(-c3cccc(F)c3)nn2)CC1 | -4 | 99 | . | .
CCN1CCN(c2c(S(=O)(=O)c3ccc(C)c(C)c3)cnc3cc(OC)c(OC)cc23)CC1 | -7 | 103 | 100 | 79
COc1ccc(NC(=O)CN2CCN(S(=O)(=O)c3cccs3)CC2)cc1Cl | 5 | . | 107 | 91

Results (from the top)
smiles | HCMV NEC inh | GIV Gai3 FP | Sa growth 42C | Sa growth 42C second temp
Cc1c2n(c3ccccc13)C/C(=C\c1ccccc1)C2=O | -14 | 109 | 93 | 97
O=S(=O)(NCC(c1cccnc1)S(=O)(=O)c1ccccc1)c1ccccc1 (configuration not stated) | -4 | 103 | . | .
O=C(CN1CCOCC1)Nc1scc(-c2ccccc2)c1C(=O)N1CCOCC1 | -31 | . | 81 | 91
CC(=O)Nc1nc(Cn2nc(C(=O)O)c3ccccc3c2=O)cs1 | -12 | . | 77 | 88
O=C(CN1CCN(S(=O)(=O)c2ccccc2)CC1)Nc1ccc2c(c1)CCC2 | -22 | . | 105 | 97
COc1ccc(-c2noc(C3CCCN(S(=O)(=O)c4ccc(Br)cc4)C3)n2)c(OC)c1 (configuration not stated) | -13 | 99 | . | .
CC1(C)OC(=O)C(=CNc2ccccc2F)C(=O)O1 | -3 | 98 | 98 | 96
CCN(CC)C(=O)CCCn1nc(C)n2c(cc3sccc32)c1=O | -2 | 103 | 97 | 87
O=C(O)c1c2c(nc3ccccc13)CCCC2 | -20 | . | 106 | 84
CCCCN(C)C(=O)C1CCN(Cc2ccc(OCC)cc2)CC1 | -9 | . | 96 | 91
N#Cc1c(-c2ccccc2)cc(-c2ccccc2)nc1SCC(O)CS(=O)(=O)Cc1ccc(Cl)cc1 (configuration not stated) | -50 | 106 | 99 | 85
O=C(ON1C(=O)c2ccccc2C1=O)c1ccc(NC(=O)c2ccco2)cc1 | -24 | 105 | 118 | 96
O=C(NC1CCCC1)C1CCN(c2ccc(-c3cccc(F)c3)nn2)CC1 | -4 | 99 | . | .
CCN1CCN(c2c(S(=O)(=O)c3ccc(C)c(C)c3)cnc3cc(OC)c(OC)cc23)CC1 | -7 | 103 | 100 | 79
COc1ccc(NC(=O)CN2CCN(S(=O)(=O)c3cccs3)CC2)cc1Cl | 5 | . | 107 | 91

Some of the entries so far, with each value named.
CCN(CC)C(=O)CCCn1nc(C)n2c(cc3sccc32)c1=O
  HCMV NEC inh: -2; GIV Gai3 FP: 103; Sa growth 42C: 97; Sa growth 42C second temp: 87

O=C(O)c1c2c(nc3ccccc13)CCCC2
  HCMV NEC inh: -20; GIV Gai3 FP: .; Sa growth 42C: 106; Sa growth 42C second temp: 84

Additional records follow.
smiles | HCMV NEC inh | GIV Gai3 FP | Sa growth 42C | Sa growth 42C second temp
COc1cc(Cl)c(C)cc1NC(=O)c1cc2c(s1)-c1c(C)cccc1OC2 | -30 | 103 | 114 | 86
Cc1ccc(CNC(=O)c2sc3nc(-c4ccccc4)cn3c2C)cc1 | . | 109 | 98 | 101
Cc1ccc2c(c1)-c1onc(C(=O)N3CCCCC3)c1CO2 | -38 | 104 | 93 | 87
O=C(COc1ccc(Cl)cc1)Nc1ccc(-c2nc3cc(Cl)ccc3o2)c(O)c1 | -39 | 106 | 98 | 94
Cc1cc(-c2nc(-c3ccc(Cl)cc3)cs2)no1 | 3 | 100 | 110 | 99
COc1ccc2c(c1)c(=O)c(S(=O)(=O)c1ccc(C)c(C)c1)cn2CC(=O)Nc1ccccc1 | 18 | 109 | 102 | 70
Cc1ccc2nsnc2c1NC(=O)Cn1c(-c2cncs2)nc2ccccc21 | -10 | 103 | . | .
Cc1ccc(NC(=O)COC(=O)c2ccc[nH]c2=O)c(S(=O)(=O)N2CCOCC2)c1 | -3 | . | 95 | 92
COc1cccc(-c2nnc3n(Cc4ccc(F)cc4)c(=O)c4ccccc4n23)c1 | -15 | 101 | 86 | 88
COC(=O)c1cccc2[nH]ncc12 | . | 100 | 99 | 76
O=C(NCCCN1CCCC1=O)C1=Cc2ccccc2OC1 | -74 | 101 | . | .
CCOc1cc(/C=c2\sc3nc4ccccc4n3c2=O)c(Br)cc1OCC(=O)O | -74 | 111 | . | .
O=C(NCc1cccnc1)c1cnn2c3c(cnc12)CCCC3 | -10 | 101 | . | .
Cc1ccc(CNC(=O)CSc2nc3n[nH]c(C)c3c(=N)n2-c2cccc(C)c2)cc1 | . | 106 | 169 | 85
CC(=O)Nc1ccc(Oc2ccc(-c3noc(C)n3)cc2)cc1 | -9 | . | 97 | 86

smiles | HCMV NEC inh | GIV Gai3 FP | Sa growth 42C | Sa growth 42C second temp
COCCOC(=O)C1=C(C)NC2=C(C(=O)CC(c3ccc(OC)c(OC)c3)C2)C1c1cccc(OC)c1OC (configuration not stated) | -56 | 101 | . | .
Cc1cc2c(cc(C(=O)N3CCC(C(=O)NCc4ccccc4)CC3)n2Cc2c(F)cccc2Cl)o1 | -11 | 102 | . | .
O=C(CSc1n[nH]c(-c2ccncc2)n1)N1c2ccccc2OCC1c1ccccc1 (configuration not stated) | -12 | . | 94 | 88
O=C(NC1CCN(Cc2ccccc2)CC1)c1cccs1 | -25 | 104 | 93 | 70
CC1=CC(C)C2(CO)COC(=C(C)C)C1C2C (configuration not stated) | -4 | 105 | 100 | 106
O=C1c2ccccc2S(=O)(=O)c2cc(C(=O)N(Cc3ccco3)C3CCS(=O)(=O)C3)ccc21 (configuration not stated) | -112 | . | 93 | 70
COc1ccc(NC(=O)CSC2CCCCC2)cc1 | -5 | 99 | 115 | 101
COC(=O)CCSc1nc2sc3c(c2c(=O)n1-c1ccc(OC)cc1)CCC3 | -7 | 106 | . | .
CCc1ccccc1NC(=O)CC(C)n1nc(C)cc1C (configuration not stated) | . | 97 | 98 | 84
Nc1sc2c(c1-c1nc3ccccc3s1)CCC2 | -27 | . | 89 | 56
Cn1nc(C(=O)NCCN2CCOCC2)c2c1-c1ccsc1CC2 | 7 | 104 | . | .
CC(=O)Nc1ccc(S(=O)(=O)N2CCC(n3c(C(F)(F)F)nc4cccnc43)CC2)cc1 | . | 102 | 78 | 87
Oc1cccc(C(=S)N2CCCCC2)c1 | -41 | 99 | 94 | 70
O=C(c1c[nH]c2ccccc2c1=O)N1CCSCC1 | -17 | 97 | . | .
O=C(c1cccc(S(=O)(=O)NC2CC2)c1)N1CCN(c2ncccn2)CC1 | -24 | . | 79 | 95

smiles | HCMV NEC inh | GIV Gai3 FP | Sa growth 42C | Sa growth 42C second temp
Cc1cc(C)n2c(Br)c(CSc3nc4ccccc4o3)nc2n1 | . | 99 | 108 | 85
Cc1cccc2sc(N(Cc3cccnc3)C(=O)C3COc4ccccc4O3)nc12 (configuration not stated) | . | 97 | 100 | 84
COc1ccc(N2CCN(c3nc(N4CCCC4)nc(N4CCCC4)n3)CC2)cc1 | 9 | 104 | . | .
COc1ccc(CNC(=O)Cc2cccs2)cc1OC | . | 103 | 125 | 91
CCCCNC(=O)CCNC(=O)N1CCSc2nc(C)cc(C)c21 | 0 | 105 | . | .
CCOc1ccc(N2C(=O)c3ccccc3C2Nc2ccccc2OC)cc1 (configuration not stated) | . | 103 | 99 | 97
Cc1nc(N2CCCC2)nc2oc(-c3ccccc3)nc12 | -31&8 | 115&127 | 94 | 85
Cc1ccc(-n2ncc(C(=O)NCCc3ccccc3)c2C2CCN(C(=O)OC(C)(C)C)CC2)c(C)c1 | . | 103 | 82 | 89
Cc1ccc(C(=O)Nc2nc3n(n2)C(c2ccc(F)cc2)C=C(c2ccccc2)N3)cc1 (configuration not stated) | -23 | 165 | 98 | 66
CCn1c(C)nc2cc(S(=O)(=O)C(F)(F)F)ccc21 | . | 99 | 107 | 86
C=CCNC(=O)Cc1ccc(-c2ccccc2)cc1 | -22 | . | 74 | 96
CC1(C)CC(=O)C(c2nc3ccc(C(=O)c4ccccc4)cc3[nH]2)=C(O)C1 | . | 100 | 112 | 98
CCOC(=O)c1csc(-c2cn(C(C)C)c(=O)n(Cc3ccccc3)c2=O)n1 | -39 | 102 | 108 | 86
CN(C)CC(C)(C)CNc1ncnc2sccc12 | -4 | . | 105 | 98
Cc1ccc(S(=O)(=O)N2CCCCC2)cc1C(=O)N1CCCC1 | -29 | 104 | 108 | 98

smiles | HCMV NEC inh | GIV Gai3 FP | Sa growth 42C | Sa growth 42C second temp
Cc1ccc(CN2C(=O)N(c3ccc(F)cc3)C(=O)C2CC(=O)Nc2ccc(Cl)cc2)cc1 (configuration not stated) | 3 | 110 | 98 | 87
Cc1c(C(=O)N(Cc2ccco2)Cc2ccccc2Cl)oc2ccc(F)cc12 | 3 | 103 | 84 | 82
CC(=O)Oc1ccc(Nc2ccccc2)cc1 | -15 | . | 72 | 65
CC1(C)CC(=O)c2c(oc3c(Cl)cc(NS(=O)(=O)c4ccc(Cl)cc4)cc23)C1 | -21 | 105 | 115 | 96
CCCN(CCC)c1ncnc2c1cnn2-c1ccc(OC)cc1 | . | 104 | 91 | 89
CC(NC(=O)Nc1ccccc1O)(C(F)(F)F)C(F)(F)F | -8 | 105 | 108 | 78
COc1cc(CNC(=O)CCCC/C=C/C(C)C)ccc1O | -38&-30&-3&-9&-9&-6&0 | 104 | 94&98 | 90&89
CC(=O)c1cccc(NC(=O)CSc2nnc3ccc(-c4ccc(Cl)cc4)nn23)c1 | . | 106 | 122 | 98
COc1ccc(-c2ccc3c(n2)sc2c(O)cc(=O)[nH]c23)cc1 | -36 | 148 | 89 | 75
O=C(CCSCc1cnn(-c2ccccc2)c1-n1cccc1)N1CCN(c2ccccc2)CC1 | 5 | 100 | . | .
COC(=O)CCS(=O)(=O)c1ccc(Oc2ccc(S(=O)(=O)CCC(=O)OC)cc2)cc1 | 3 | 103 | 120 | 101
CCN(CC)S(=O)(=O)c1ccc(C(=O)N2CCNC(=O)C2)cc1 | -19 | . | 75 | 84
Cc1cccc(NC(=S)NC23CN4CN(CN(C4)C2)C3)c1C | -16 | 105 | 95 | 91
Cc1ccc(CN2C(=O)/C(=c3\sc4nc(-c5cccs5)nn4c3=O)c3ccccc32)cc1 | 8 | 108 | 91 | 95
CCOC(=O)Cc1c(C)nc2c(C(=O)Nc3ccc(Cl)cc3)c[nH]n2c1=O | -11 | 109 | . | .

smiles | HCMV NEC inh | GIV Gai3 FP | Sa growth 42C | Sa growth 42C second temp
Cc1cc2nc(C(F)(F)F)cc(-c3cccs3)n2n1 | -37 | . | 100 | 87
CCOc1ccc(-c2noc(-c3cnn4c(C)c(Cc5ccccc5C)c(C)nc34)n2)cc1OC | 2 | 181 | . | .
CC(C)n1c(CN2CCCCC2)nc2cc(NC(=O)C3CCCCC3)ccc21 | 12 | 101 | . | .
COC(=O)C1=C(C)N(c2ccc(Br)cc2)C(=O)/C1=C\c1ccco1 | 1 | 107 | 100 | 92
O=S1(=O)CCC(S(=O)(=O)Nc2ccccc2)C1 (configuration not stated) | -1&-11 | 101&104 | 96 | 97
O=C(/C=C/c1c(Cl)nc2sccn12)Nc1ccc2c(c1)OCCO2 | -3 | . | 106 | 96
Cc1ccc(Oc2ccc(C(=O)O)cc2)cc1C | -11 | 96 | 113 | 108
CNC(=S)N=Nc1c(O)[nH]c2ccc(C(C)C)cc12 | -28 | . | 67 | 85
O=C(CN1CCOCC1)NCc1ccccc1 | 1 | 103 | 94 | 103
CCOC(=O)COc1cc(OCC(=O)OCC)c2c3c(c(=O)oc2c1)CCC3 | -6 | 101 | 101 | 97
CSc1ccccc1NC(=O)c1cc(Cl)sc1Cl | -19 | 99 | 98 | 87
CCOc1ccccc1NN | -10 | . | 97 | 80
CC(=O)N1CCC(N(Cc2ccc(C)o2)C(=O)Nc2ccc(C)cc2)CC1 | . | 99 | 111 | 79
